Source: PubChem (Broad Institute)
AF4-AF9 inh: inhibitors of AF4 peptide binding to AF9, primary screen, biochemical, AlphaScreen, biotin-AF4 peptide, FLAG-AF9, single point | AID 651704, 2012 | hit rate 0.47% among 350,000 | Protein AF-9 (Homo sapiens), P42568 | inhibition, % at 10 µM;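 active means every replicate reaching a set inhibition limit, whatever the replicate mean, cut at about 25% in these data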;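 further: 0% = plate neutral control median and 100% = total signal loss; the record names both 10 and 1 µM as test concentration; the first replicate is given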
Target sequence (P42568 whole entry, looked up): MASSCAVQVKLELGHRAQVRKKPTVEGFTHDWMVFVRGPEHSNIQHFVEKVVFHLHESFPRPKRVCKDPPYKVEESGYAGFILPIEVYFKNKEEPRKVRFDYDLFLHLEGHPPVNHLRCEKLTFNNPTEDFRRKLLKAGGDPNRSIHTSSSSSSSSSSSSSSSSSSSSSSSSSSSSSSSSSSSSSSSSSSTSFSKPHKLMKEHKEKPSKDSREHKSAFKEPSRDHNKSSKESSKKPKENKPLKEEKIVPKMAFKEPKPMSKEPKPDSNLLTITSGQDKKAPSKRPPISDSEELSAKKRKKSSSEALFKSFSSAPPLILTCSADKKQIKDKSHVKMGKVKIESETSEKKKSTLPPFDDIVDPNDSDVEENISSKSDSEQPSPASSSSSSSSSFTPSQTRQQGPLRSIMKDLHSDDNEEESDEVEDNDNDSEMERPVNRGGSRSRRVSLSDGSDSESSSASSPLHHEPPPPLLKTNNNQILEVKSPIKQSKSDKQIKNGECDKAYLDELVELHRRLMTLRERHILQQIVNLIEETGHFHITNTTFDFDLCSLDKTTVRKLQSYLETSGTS
FGF22 binding: binders of human FGF22 protein, primary screen, FGF22 synaptogenesis inhibitor project, biophysical, thermal shift, single point | recombinant FGF22 thermal shift, SYPRO orange fluorescence; percent of sucrose octasulfate shift, DMSO zero | calls only at 9.99 µM | hit rate 1.5% among 340,000 | AID 651658, 2012;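 active means melting point raised past a set limit in the mean and every replicate; three in four hits are not shown here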
Target sequence (Q9HCT0 whole entry, looked up): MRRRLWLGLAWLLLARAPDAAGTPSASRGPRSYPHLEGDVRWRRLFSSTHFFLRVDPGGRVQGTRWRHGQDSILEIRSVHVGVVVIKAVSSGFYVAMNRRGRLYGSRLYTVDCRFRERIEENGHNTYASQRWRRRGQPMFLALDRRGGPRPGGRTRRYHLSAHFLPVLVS
rRNA inh HTS: reduced GFP signal of wild-type E. coli, primary screen, bacterial rRNA inhibitor project, GFP/RFP fluorescence, OD600, single point; E. coli WT GFP vs humanized-ribosome RFP mutants, 24 h; hits give low values; DMSO median 0, no signal -100; hit rate 1.6% among 350,000; GFP signal change (wild-type ribosome), % (concentration not given with the values);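 active means significant combined selectivity score with lowered wild-type GFP, culture density cut under 30%, mutant RFP and density less affected; inactive means any of these conditions unmet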; further: one replicate is shown; some compounds called inactive have numbers as strong as hits
rRNA inh HTS OD600: recorded beside rRNA inh HTS, whose call it bears; OD600 change, %; measured here: OD600 growth;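 optical density of the mix in the first replicate; 0 = DMSO median and -100 = no signal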
rRNA inh HTS RFP: further read-out of rRNA inh HTS, marked with its call; RFP signal change, %; measured here: RFP humanized mutant strains;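 first replicate; 0 = DMSO median and -100 = no signal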
* hit, by the source's call; i = inactive; / = no result given. Not all compounds are listed; count on the stated rates, not on these rows.

Start of the data: the first five entries (preview)
compound	AF4-AF9 inh	FGF22 binding	rRNA inh HTS	rRNA inh HTS OD600	rRNA inh HTS RFP
C[C@H](CO)N1C[C@H](C)[C@@H](CN(C)S(=O)(=O)c2ccc(F)cc2)Oc2ccc(NC(=O)Nc3ccc(F)cc3)cc2CC1=O	1.0	i	-3	-6	3.6
c1ccc2c(-c3ccc4nncn4c3)cncc2c1	2.0	i	10	6	2.2
O=C(C[C@@H]1C[C@@H]2c3cc(NC(=O)NC4CCCCC4)ccc3O[C@@H]2[C@H](CO)O1)NCc1ccncc1	-18	i	1	1	-1.4
COc1ccc(C(=O)NCC(=O)N2CCN(C(=O)c3ccco3)CC2)cc1OC	-1.4	i	15	10	1.9
COC(=O)C[C@H]1CC[C@@H](NS(=O)(=O)c2ccc(OC)cc2)[C@@H](CO)O1	-1.7	i	3	3	-4.5

All compounds of this part, previewed entries included:
compound	AF4-AF9 inh	FGF22 binding	rRNA inh HTS	rRNA inh HTS OD600	rRNA inh HTS RFP
C[C@H](CO)N1C[C@H](C)[C@@H](CN(C)S(=O)(=O)c2ccc(F)cc2)Oc2ccc(NC(=O)Nc3ccc(F)cc3)cc2CC1=O	1.0	i	-3	-6	3.6
c1ccc2c(-c3ccc4nncn4c3)cncc2c1	2.0	i	10	6	2.2
O=C(C[C@@H]1C[C@@H]2c3cc(NC(=O)NC4CCCCC4)ccc3O[C@@H]2[C@H](CO)O1)NCc1ccncc1	-18	i	1	1	-1.4
COc1ccc(C(=O)NCC(=O)N2CCN(C(=O)c3ccco3)CC2)cc1OC	-1.4	i	15	10	1.9
COC(=O)C[C@H]1CC[C@@H](NS(=O)(=O)c2ccc(OC)cc2)[C@@H](CO)O1	-1.7	i	3	3	-4.5
CN1C(=O)N(CC(=O)N2CCN(S(=O)(=O)Cc3ccccc3)CC2)C(=O)C12CCCCC2	-12	i	9	12	-0.4
CCC(=O)Nc1ccc2c(c1)C(=O)N(C)C[C@@H](OC)[C@@H](C)CN(Cc1cccnc1)[C@H](C)CO2	0.3	i	-1	1	-4.0
NC(=O)c1ccsc1NC(=O)CSc1nncs1	4.2	i	2	3	-0.2
Cc1noc(C)c1S(=O)(=O)Nc1ccc2c(c1)C(=O)N([C@H](C)CO)C[C@@H](C)[C@H](CN(C)C(=O)Nc1ccccc1)OCCCC[C@@H](C)O2	4.7	i	-1	-3	1.1
O=C(Nc1ccccc1Cl)N1[C@@H](CO)[C@@H]2c3ccccc3NC[C@@H]21	1.7	i	-2	-13	-1.6
Cc1ccc(Cn2c(C)c(C(=O)NCc3cccs3)sc2=O)cc1	7.4	i	-5	-10	-6.4
CC1(C(=O)Nc2ccccc2F)CCN1C(=O)Cc1cc(F)ccc1F (stereo not given)	-5.0	i	0	3	1.8
O=C(c1ccc(F)cc1)N1CC(=O)N2[C@@H](CO)[C@@H](c3ccc(-c4cccnc4)cc3)[C@@H]2C1	-1.0	i	-1	4	-4.8
C[C@H]1CN([C@@H](C)CO)C(=O)c2cc(-c3ccccc3)cnc2O[C@H]1CN(C)C(=O)Nc1ccc2c(c1)OCO2	0.1	i	-4	-6	1.4
Cn1cnc([N+](=O)[O-])c1Sc1nc(N)nc2c1ncn2Cc1ccccc1	-1.8	i	11	15	5.4
C[C@H]1CN([C@@H](C)CO)C(=O)Cc2cc(NC(=O)NC3CCCCC3)ccc2O[C@@H]1CN(C)Cc1ccc(-c2ccccc2)cc1	-1.4	i	4	1	3.8
CCCCN(C=O)c1c(CC)nc2ccc(C(=O)N(C)Cc3ccccc3)cn12	-2.8	i	-2	0	-0.3
COCC(=O)N(C)C[C@@H]1Oc2cc(C#Cc3cccnc3)ccc2S(=O)(=O)N([C@H](C)CO)C[C@@H]1C	-0.8	i	-2	0	-1.6
C[C@H](O)C#Cc1ccc2c(c1)O[C@H](CN(C)C(=O)CN(C)C)[C@@H](C)CN([C@@H](C)CO)S2(=O)=O	-2.1	i	1	2	-0.1
CC(C)NC(=O)N1[C@@H](CO)[C@@H](c2ccccc2)C12CN(C(=O)Cc1cccnc1)C2	-8.3	i	-1	7	-0.4
O=C(C[C@H]1C=C[C@H](NC(=O)Nc2ccccc2F)[C@@H](CO)O1)NCc1ccc(Cl)cc1	-1.5	i	2	13	-3.5
COc1ccc(-c2cc(NC=O)c3ncc(-c4ccc(C(C)=O)cc4)n3c2)cn1	3.9	i	4	5	4.4
O=C(C[C@@H]1C=C[C@@H](NC(=O)c2cccc(F)c2)[C@H](CO)O1)NCc1ccc(Oc2ccccc2)cc1	-8.8	i	-6	-2	-4.1
O=C(N[C@@H]1CC[C@@H](CCNS(=O)(=O)c2ccccc2Cl)O[C@H]1CO)c1ccc(F)cc1	-0.2	i	-1	-1	2.2
CCC(=O)N(C)C[C@H]1Oc2cc(C#Cc3ccccn3)ccc2S(=O)(=O)N([C@H](C)CO)C[C@@H]1C	-2.4	i	-3	8	4.4
Cc1ccc(S(=O)(=O)N2CCOCC2)cc1NC(=O)COC(=O)c1cnccn1	-0.4	i	2	8	3.5
CCCN(CC(=O)Nc1ccccc1C)C(=O)c1ccc(N2CCCC(C)C2)c([N+](=O)[O-])c1 (stereo not given)	3.4	i	-22	-26	-3.2
CCN1[C@@H]2Cn3c(ccc(C4=CCCC4)c3=O)[C@H]1[C@@H](C(=O)NC1CCCC1)[C@@H]2CO	0.1	i	1	-2	-2.8
CCCCN(C=O)c1c(CC)nc2ccc(C(=O)NCc3ccccc3OC)cn12	-0.8	i	9	1	-1.1
COc1ccc2c3c(n(C)c2c1)[C@@H](CO)N(C(=O)NC(C)C)CC31CCN(CC2CCCC2)CC1	-0.1	i	0	10	-2.2
C[C@@H]1CCCCO[C@H](CN(C)S(=O)(=O)c2ccccc2)[C@H](C)CN([C@@H](C)CO)C(=O)c2cc(NS(=O)(=O)c3cn(C)cn3)ccc2O1	-1.8	i	-5	-3	2.7
O=C(Nc1ccc2c(c1)[C@H]1C[C@H](CC(=O)N3CCCCC3)O[C@H](CO)[C@H]1O2)c1ccc2c(c1)OCO2	1.6	i	-5	-7	4.0
CCN1[C@@H]2Cn3c(ccc(C4=CCCCC4)c3=O)[C@H]1[C@@H](C(=O)NC1Cc3ccccc3C1)[C@@H]2CO	1.0	i	-3	-16	5.0
C[C@@H]1CN([C@@H](C)CO)C(=O)c2cc(C#CC3CC3)cnc2O[C@H]1CN(C)S(=O)(=O)c1cccc(F)c1	-0.9	i	2	-6	-0.4
Cc1ccc(C(=O)CCC(=O)OCC(=O)Nc2cc(S(=O)(=O)N(C)C)ccc2C)cc1	-4.6	i	3	5	2.6
O=C(Nc1nnc([C@H]2C[C@H](O)[C@@H](CO)O2)s1)Nc1cccc2c1CCCC2	0.2	i	1	5	7.5
CCCCCc1c(-c2ccccc2F)ncn1CCc1ccccc1OC	3.3	i	-27	-63	-6.4
CC(C)N(C(=O)COC(=O)c1cccc(S(=O)(=O)N2CC3(C)CC2CC(C)(C)C3)c1)C(C)C (stereo not given)	-23	i	0	-1	-2.5
CCC1(c2ccccc2)NC(=O)N(CC(=O)NC2CCCC2)C1=O (stereo not given)	0.4	i	11	7	-0.9
C[C@@H]1CN([C@@H](C)CO)C(=O)c2cccc(NC(=O)NC3CCCCC3)c2O[C@H]1CN(C)S(=O)(=O)c1cccs1	0.6	i	-1	2	0.8
NC(Cc1ccc(C(F)(F)F)cc1)c1csc(NC(=O)Nc2ccccc2Cl)n1 (stereo not given)	0.2	i	-30	-32	-2.0
O=C(NCc1cccc(F)c1)[C@@H]1[C@@H](CO)[C@@H]2Cn3c(cccc3=O)[C@H]1N2	-1.0	i	3	8	-1.0
COc1ccc2c3c(n(C)c2c1)[C@@H](CO)N(C(=O)c1ccc(F)cc1)CC31CN(C(=O)Nc2ccc(F)cc2)C1	-1.2	i	-2	-7	-1.6
Cc1noc(C)c1NC(=O)N(C)C[C@@H]1Oc2ccc(NC(=O)NC(C)C)cc2CC(=O)N([C@@H](C)CO)C[C@H]1C	-9.2	i	3	12	-1.7
COC(=O)[C@@]12C[C@@H](CC(=O)N3CCN(C(=O)c4ccco4)CC3)C(=O)N(Cc3cccc4ccccc34)C1=CCC(C)(C)C2	6.5	i	-4	-2	-0.1
CC(C)C#Cc1ccc2c(c1)O[C@H](CN(C)C(=O)c1ccccc1)[C@H](C)CN([C@H](C)CO)S2(=O)=O	6.3	i	-3	-1	7.5
O=C(C[C@H]1C=C[C@H](NC(=O)Nc2cc(F)ccc2F)[C@H](CO)O1)NCCCN1CCOCC1	-4.3	i	0	-3	-1.8
C[C@@H]1CN([C@H](C)CO)C(=O)c2cccc(N(C)C)c2O[C@@H]1CN(C)Cc1ccccc1	0.3	i	6	6	0.5
O=C1NC[C@H](CCCCN2C[C@H](Cc3ccc(O)cc3)N(CCC3CCCCC3)C(=O)C2=O)N(CCc2ccc(O)cc2)C1=O	-4.1	i	-25*	-9.4*	2.5*
COc1ccc(-c2nc3c4ccccc4ccn3c2Cc2cccc(F)c2)cc1OC	4.3	i	62	18	35

The listing continues:
compound	AF4-AF9 inh	FGF22 binding	rRNA inh HTS	rRNA inh HTS OD600	rRNA inh HTS RFP
O=C1[C@H](Cc2ccccc2)CCn2cc(nn2)COCC2CCCN12 (stereo not given in full)	-3.4	i	2	8	-5.3
Cc1ccc(S(=O)(=O)Oc2ccc(/C=N/N=C3/NC(=O)C(CC(=O)O)S3)cc2)cc1 (stereo not given)	-0.3	i	-3	-3	-1.1
C#CCNC[C@@H]1CSCCS(=O)(=O)N1	-2.1	i	13	9	4.1
CC(C)NC(=O)NCC[C@H]1CC[C@H](NS(=O)(=O)c2ccc(-c3ccccc3)cc2)[C@H](CO)O1	1.1	i	-5	-11	0.5
C[C@@H](NC(=O)C[C@H]1CC[C@@H]2[C@H](COC[C@@H](O)CN2Cc2ccc(C(F)(F)F)cc2)O1)c1ccccc1	-0.4	i	i	/	/
C[C@@H]1CN([C@H](C)CO)C(=O)c2cccc(NS(=O)(=O)c3ccc(F)cc3)c2O[C@@H]1CN(C)S(=O)(=O)c1ccc(F)cc1	2.3	i	0	-10	-1.2
C[C@H](CO)N1C[C@H](C)[C@H](CN(C)C(=O)Nc2ccc3c(c2)OCO3)Oc2ncc(-c3cccc(C(F)(F)F)c3)cc2C1=O	12	i	-7	-20	1.8
CCCN1C[C@@H](C)[C@@H](OC)CN(C)C(=O)c2ccc(NC(=O)COC)cc2OC[C@@H]1C	-9.9	i	0	4	-0.6
CO[C@@H]1CN(C)C(=O)c2ccc(NC(=O)c3cnccn3)cc2OC[C@H](C)N(CC2CC2)C[C@H]1C	-4.0	i	1	0	-0.4
C[C@@H]1CCCCO[C@H](CN(C)CC2CC2)[C@@H](C)CN([C@@H](C)CO)C(=O)c2cc(NS(=O)(=O)c3ccccc3)ccc2O1	6.6	i	3	4	1.7
C[C@H](NC(=O)[C@@H]1[C@@H](CO)[C@@H]2Cn3c(ccc(-c4ccccc4)c3=O)[C@@H]2N1C)c1ccccc1	-1.2	i	-7	0	-1.9
C[C@H](CO)N1C[C@H](C)[C@H](CN(C)Cc2ccc3c(c2)OCO3)Oc2ccc(N(C)C)cc2C1=O	3.1	i	2	7	-2.9
O=C(NCC[C@H]1CC[C@@H](NC(=O)C2CC2)[C@H](CO)O1)c1cnccn1	-0.9	i	0	4	0.5
COCCNC(=O)c1cc(S(=O)(=O)N(C)C2CCCCC2)ccc1Cl	0.5	i	2	0	1.9
COc1ccc(S(=O)(=O)N(C)C[C@H]2OCCCC[C@H](C)Oc3ccc(NC(=O)Cc4ccccc4)cc3C(=O)N([C@H](C)CO)C[C@H]2C)cc1	-1.7	i	-1	1	1.3

Fetched by structure from above (2):
compound	AF4-AF9 inh	FGF22 binding	rRNA inh HTS	rRNA inh HTS OD600	rRNA inh HTS RFP
CCC(=O)Nc1ccc2c(c1)C(=O)N(C)C[C@@H](OC)[C@@H](C)CN(Cc1cccnc1)[C@H](C)CO2	0.3	i	-1	1	-4.0
CCCCCc1c(-c2ccccc2F)ncn1CCc1ccccc1OC	3.3	i	-27	-63	-6.4
